# D2 potentiator – human D2 receptor positive allosteric modulation | potentiation, % (concentration not given with the values) | hit rate 0.23% among 360,000 | DiscoveRx D2 beta-arrestin cells, luminescence, 90 min; 100% = 57 uM dopamine signal; active = potentiation of 50% or more; inconclusive = 30% to 50%; inactive = 30% or less;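 note: compound concentration not given in the record; tested on top of an EC20 dose of dopamine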
# Target sequence (P14416 whole entry, looked up): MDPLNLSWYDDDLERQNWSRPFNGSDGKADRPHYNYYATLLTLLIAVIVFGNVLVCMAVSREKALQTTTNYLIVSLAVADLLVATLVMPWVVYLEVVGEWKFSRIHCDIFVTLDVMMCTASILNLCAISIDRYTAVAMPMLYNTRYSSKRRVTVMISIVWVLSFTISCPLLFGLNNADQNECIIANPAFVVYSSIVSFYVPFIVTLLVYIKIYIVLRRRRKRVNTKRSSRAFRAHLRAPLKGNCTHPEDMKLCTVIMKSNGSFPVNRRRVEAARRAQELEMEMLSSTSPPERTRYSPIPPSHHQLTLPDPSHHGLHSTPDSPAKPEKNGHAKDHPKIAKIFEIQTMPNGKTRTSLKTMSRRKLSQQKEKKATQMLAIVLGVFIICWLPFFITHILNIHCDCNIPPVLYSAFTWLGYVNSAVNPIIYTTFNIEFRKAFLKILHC
#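 D2 cells co-treated with compound plus 50 nM dopamine (EC20) for 90 min at 37 deg C to detect potentiation. Beta-arrestin recruitment was read as enzyme-fragment luminescence after 1 h at ambient temperature. Full response was set by 57 uM dopamine.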
# TRPV1 potentiator – human TRPV1 potentiation; hit rate 0.02% among 320,000; potentiation, % at 8.33 µM; TRPV1-expressing cells, Fluo-8 calcium influx, capsaicin EC20 potentiation; host cell line not named in the record; control for the full effect not named in the record; Q8NER1; active means potentiation above 80%; inconclusive means 30% to 80%; inactive means below 30%; note: 0% is about no effect
#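 TRPV1-expressing cells were cultured overnight at 35.5C and loaded with Fluo-8 calcium dye for 40 to 90 min at room temperature. After a 10 s baseline, compound was added and calcium influx was read kinetically for 3 min (ex 480/em 520 nm).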
# Six1-Eya2 blk – blocks human Six1 binding to Eya2; AlphaScreen GST-Six1/His-Eya2 binding, biochemical; hits give low values; control for the full effect not named in the record; AID 651725; activity change, % (test concentration not listed); hit rate 0.56% among 360,000; Q15475+O00167; in the data active = activity change below about -65%; inconclusive = about -30% to -65%; inactive = above about -30%; note: % is set by controls: 0 for no effect and ±100 for the full control effect; compound concentration not given in the record
#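 Homogeneous AlphaScreen proximity assay pairing GST-Six1 with His-tagged Eya2 (added as 5X mix: 250 nM and 500 nM) in 50 mM Tris pH 8.0, 300 mM NaCl, 1 mM TCEP. Glutathione donor and nickel acceptor beads; 1 h, 37 °C, dark.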
# D2 agonist – human D2 receptor agonism in beta-arrestin assay. DiscoveRx PathHunter D2 beta-arrestin, luminescence, 90 min; 100% = 57 uM dopamine signal. hit rate 0.084% among 360,000. activation, % (concentration not given with the values). AID 624465. P14416; in the data active = activation above about 40%; inconclusive = about 15% to 40%; inactive = below about 15%; note: compound concentration not given in the record; the text of the record calls up to 30% inactive
#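 DiscoveRx PathHunter D2 beta-arrestin cells (2,100/well) attached overnight, then compound-stimulated 90 min at 37 C in HBSS/10 mM HEPES/0.1% Tween-20 buffer; beta-galactosidase complementation read by luminescence after 1 h at ambient temperature. Dopamine 57 uM final (EC100) as control.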
# PINK1 modulator – changes PINK1 expression; PINK1 immunofluorescence, high-content cytometry, 24 h; Potency, µM (highest dose often 76.6 µM), inactives show top-dose activation (PINK1 increase), most hits filed as activators; hit rate 0.2% among 410,000; AID 624263; active = well fitted activation curve with a large enough effect; inconclusive = small, poorly fitted or top-dose-only effect; inactive = flat fitted curve, though single readings scatter; cell line not stated here;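 note: potency is the fitted concentration of half-maximal effect; % of control where 0% means no effect; nearly all actives have a fitted effect of over 65% in size; a mitochondrial uncoupler was the plate control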
#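 Compound titrations (5 concentrations, 24 h) on a stable cell line; DMSO and CCCP controls. Endpoint: fixed-cell PINK1 immunofluorescence with mitochondrial, cell and nuclear markers, scanned by microplate cytometer.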
# Sfp inh – blocks B. subtilis Sfp PPTase activity | Potency, µM, for the others: max response, negative = inhibition, hits mostly inhibitors | Biochemical Sfp PPTase activity, qHTS | Q9F4F7 | hit rate 3.5% among 310,000; active = well fitted inhibition curve with a large enough effect; inconclusive = small, poorly fitted or top-dose-only effect, or another doubt; inactive = no such curve, though single readings can be large or run the other way;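 note: the enzyme is Sfp with the accession as filed and its product quenches rhodamine fluorescence; potency is the fitted concentration of half-maximal effect; 0% = enzyme reaction without inhibitor and -100% = no enzyme wells; top concentration of the series not given in the record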
#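 Step 1, compound plus 15 nM Sfp-PPTase, 15 min, room temperature. Step 2, add rhodamine-CoA (5 uM) and BHQ-2-YbbR (12.5 uM). Step 3, read 525/598 nm fluorescence at 0 and 30 min.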
# CtBP-E1A blk – inhibitors of CtBP/E1A interaction; AlphaScreen GST-E1A/His-CtBP binding, 1536-well; hits give low values; control for the full effect not named in the record; hit rate 0.49% among 340,000; activity change, % (test concentration not listed); in the data active means activity change below about -65%; inconclusive means about -30% to -65%; inactive means above about -30%; note: % is set by controls: 0 for no effect and ±100 for the full control effect; compound concentration not given in the record
#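 Homogeneous bead-based format: GST-tagged E1A captured on glutathione donor beads, His-tagged CtBP on nickel acceptor beads; compounds precede bead addition by 2 h at 37 °C.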
# The depositor's hits bear a star; ? = inconclusive; nt = no result given; [ ] = another dose, or the depositor's remark.
entry	Structure	Six1-Eya2 blk	D2 potentiator	PINK1 modulator	D2 agonist	TRPV1 potentiator	CtBP-E1A blk	Sfp inh
1	O=C1NC[C@H](CCCCN2C[C@H](Cc3ccc(O)cc3)N(CCc3ccccc3)C(=O)C2=O)N(Cc2ccccc2)C1=O	-4.3	nt	1.0%	nt	nt	-5.6	nt
2	O=C1NC(=O)C2(Br)Nc3ccc(Br)cc3C(=O)C2N1 (stereo not given)	-17.7	-3.5	-4.2%	-3.0	nt	-1.3	nt
3	Brc1c(CSc2nnc(-c3ccco3)o2)nc2ccccn12	-7.4	18.0	-2.4%	-1.6	10.4	0.5	-19.2%
4	Cc1onc(-c2ccccc2)c1C(=O)OCC(=O)Nc1cccc(Cl)c1	4.2	2.7	9.5%	-7.6	-5.4	6.7	nt
5	CC1SC(C)C(=O)N(CC(=O)Nc2ccc([N+](=O)[O-])cc2)C1=O (stereo not given)	-8.9	-0.7	-0.3%	-5.8	-4.5	4.2	5.5%
6	O=P(O)(CCc1ccccc1)CN1CCCCC1	4.0	-1.4	?	-0.6	-5.4	7.1	-6.9%
7	COc1ccc(S(=O)(=O)N2CCOCC2)cc1NC(=O)CSc1nnc2n1CCCCC2	0.7	-2.7	-0.4%	-2.2	nt	-0.5	nt
8	O=C(CCC(=O)OCc1cccc([N+](=O)[O-])c1)Nc1ccccc1Cl	-0.6	-11.4	2.7%	-1.1	-8.5	5.0	21.5%
9	COc1cccc(C(=O)N/N=C(\CC(C)C)c2ccccc2)c1	-11.4	1.2	-0.1%	-5.7	-17.1	-10.7	3.9%
10	Cc1ccc(NS(=O)(=O)c2cccc(C(=O)NC3CC3)c2)c(C)c1	-0.9	-2.0	0.8%	1.4	nt	-6.2	nt
11	O=C(c1cc(-c2ccc(Cl)s2)nc2ccccc12)N1CCOCC1	-0.2	-68.4	-0.9%	-2.3	2.6	6.4	nt
12	Cc1cccc(N(C(=O)c2csnn2)C(C(=O)NCc2ccccc2)c2ccncc2)c1 (stereo not given)	-7.1	0.7	1.0%	1.2	0.3	0.0	16.0%
13	Cc1ccc(NC(=O)CNC(=O)c2cccc(Cl)c2)nc1	2.7	-20.7	2.9%	2.7	-5.3	3.1	nt
14	Cc1cc(C)nc(NS(=O)(=O)c2ccc(NC(=O)C(C)Oc3ccccc3F)cc2)n1 (stereo not given)	0.0	-8.0	-1.1%	-3.7	-6.5	0.0	14.2%
15	CSc1ccc(CN(C)CC(=O)Nc2ccccc2Br)cc1	4.0	-17.3	8.6%	-2.3	5.3	-4.0	-9.4%
16	CCOC(=O)Cc1csc(NC(=O)c2csc(C)c2)n1	-2.2	-7.8	-0.4%[38.3 µM]	-2.0	-4.2	7.5	4.8%
17	Cc1ccc(CN2CCCCC2C(=O)Nc2ccc(Oc3cccnc3)cc2)o1 (stereo not given)	-10.7	?	?	11.4	-5.7	3.3	5.7%
18	COc1ccccc1CNC(=O)CN1CCN(S(=O)(=O)c2cccs2)CC1	-1.2	-7.7	-1.3%	1.3	-5.8	nt	4.0%
19	Cc1cccc(S(=O)(=O)N(C)C[C@H]2OCc3cnnn3CCCC(=O)N([C@H](C)CO)C[C@H]2C)c1	2.6	nt	2.5%	-0.4	nt	-12.2	nt
20	CC(C)(C)NC(=O)C(c1ccncc1)N(C(=O)c1csnn1)c1ccccc1 (stereo not given)	-1.6	-10.4	6.2%[38.3 µM]	-3.3	17.8	13.3	18.5%
21	Nc1ccccc1-c1nnn(CC(=O)Nc2ccc3c(c2)OCCO3)n1	-3.8	-8.7	0.7%	-1.3	6.9	-5.8	2.9%
22	CN(CC(=O)N1CCN(c2ccccc2)CC1)S(=O)(=O)c1cnc[nH]1	6.5	-1.4	-1.7%	1.9	4.6	1.7	13.8%
23	COC1=C/C(=C/c2c(N)n3c(nc2=O)sc2cc(S(C)(=O)=O)ccc23)C=CC1=O	3.6	-5.3	0.6%	-0.7	-1.4	-0.2	-9.6%
24	COc1ccccc1/C=C1\SC(=S)N(CC(=O)NC2CCS(=O)(=O)C2)C1=O (stereo not given)	-6.5	-10.3	1.7%	-6.9	8.3	-7.4	-0.5%
25	COc1ccc(C(=O)OCC(=O)N2CCN(C(=O)c3ccco3)CC2)cc1OC	-2.6	-1.5	2.0%	4.4	nt	-3.2	nt
26	O=C(NC(=O)c1cccc(F)c1)Nc1nc(-c2ccc(F)cc2)cc(C(F)(F)F)n1	-6.8	6.3	0.6%	1.0	14.5	0.0	15.8%
27	Cc1cccc2cc(CN(Cc3cccs3)C3(c4nnnn4C4CCCC4)CCCC3)c(=O)[nH]c12	-2.5	-5.1	8.0%	-2.4	6.5	4.7	16.5%
28	O=C(/C=C/c1ccccc1)OCCN1C(=O)c2ccccc2C1=O	2.2	8.9	0.1%	3.1	1.3	19.6	-3.9%
29	COc1ccc(CN(C)C(=O)c2cc(S(=O)(=O)Nc3ccccc3F)ccc2C)c(OC)c1	4.6	9.3	-0.9%	1.0	22.6	-5.7	-3.5%
30	COc1cccc(CN(C(=O)Cc2c[nH]c3ccccc23)C(C(=O)NC2CCCCC2)c2cccs2)c1 (stereo not given)	-1.3	-1.0	nt	1.0	-2.8	-3.9	9.8%
31	CC(C)N(Cc1nccn1C)C(=O)c1cc(COc2cccc(C(F)(F)F)c2)on1	-5.2	-10.1	1.2%	-1.2	-1.3	1.7	11.0%
32	C[C@H](CO)N1C[C@H](C)[C@H](CN(C)C(=O)Nc2ccccc2)OCc2cnnn2CCCC1=O	6.0	-3.3	-0.6%	-10.6	nt	7.0	nt
33	CCC(C)[C@H](NS(=O)(=O)c1ccc(C)cc1)C(=O)N1CCC(C(=O)N2CCC(C(N)=O)CC2)CC1 (stereo not given in full)	0.3	-30.7	-0.1%	-5.0	10.8	-22.0	12.5%
34	Cc1cc(=O)n(C)c(=O)n1CCCCCOc1cccc([N+](=O)[O-])c1	-0.6	-6.8	0.1%	-0.8	-0.4	-4.8	17.8%
35	O=C(c1ccccc1)C(O)c1ccccc1 (stereo not given)	-1.7	-10.0	0.2%	-5.2	-4.9	-6.8	-2.1%
36	CCN1C[C@@H]2[C@@H]3C(=O)N(C)C(=O)[C@@H]3[C@](Cc3ccccc3)(C1=O)N2C(=O)c1ccc(Br)cc1	3.8	0.3	-0.2%	-2.5	nt	3.1	nt
37	Cc1ccc(/C=N/NC(=O)c2c[nH]c3ccccc23)o1	?	-18.2	0.9%[38.3 µM]	0.5	-8.5	?	2.2%
38	CC(C)(C)N1C(=O)Cc2c1nc(N)c1c(N)nc(N3CCCCC3CO)c(C#N)c21 (stereo not given)	-14.1	5.3	-1.8%	7.8	0.8	-26.2	-11.5%
39	CCc1cc(=O)oc2cc(C)cc(OCC(=O)NC(Cc3ccc(Cl)cc3)C(=O)O)c12 (stereo not given)	1.1	-25.0	0.4%	-8.3	13.9	-19.9	12.1%
40	CCCCOc1cccc(-c2nnc(NC(=O)CSc3ccc(C)cc3)s2)c1	17.3	-0.8	26.2%	-4.4	-11.8	-2.3	-1.7%
41	CC(=O)c1ccc(Nc2ccc(-c3ccccc3C)nn2)cc1	?	-7.0	2.2%	-3.6	-1.5	?	-6.4%
42	Cc1cccc(NC(=O)CN2CCC(C(=O)c3ccc4c(c3)OCCO4)CC2)c1	-1.0	-2.7	3.1%	-1.8	-3.0	-2.2	1.0%
43	Cc1ccccc1-c1cc(C(=O)NCc2ccc3c(c2)OCO3)n(CC2CC(c3cccnc3)=NO2)n1 (stereo not given)	-9.1	-17.7	0.2%	1.5	-0.8	-28.7	nt
44	CN(C)C(=O)c1cccc(-c2cccc(-c3nc(C(=O)NCc4ccccc4)cc4c3[C@@H](CCO)N(S(=O)C(C)(C)C)C4)c2)c1 (stereo not given in full)	-11.8	18.3	0.0%	?	nt	-1.0	nt
45	O=C(NC1CCCCC1)N1CCC(n2cnc3ccccc32)CC1	7.8	3.6	1.4%	0.2	2.4	1.7	-6.8%
46	Fc1ccc(CNC(=S)Nc2ccc(Cl)cc2)cc1	4.9	-23.7	?	3.1	-10.8	3.0	5.7%
47	O=C1CC2(CCN(C(=O)c3ccc(F)c(F)c3)CC2)Oc2ccccc21	-1.3	-3.7	-0.8%	-0.8	-1.1	-1.6	nt
48	C/C(=C\C(=O)c1ccc(Br)cc1)N1CCCCC1	-1.6	-17.5	nt	-3.4	-4.8	7.6	8.9%
49	CC(=O)N1CCN(S(=O)(=O)c2cccc(C(=O)N3CCN(S(=O)(=O)c4c(C)c(C)cc(C)c4C)CC3)c2)CC1	-1.8	-8.5	0.5%	-0.7	nt	0.0	nt
50	O=C(NNC(=O)c1cc(Cl)ccc1O)c1cccs1	-9.2	-3.6	-1.6%	-1.9	?	-8.3	32.0%[activator]

# A stretch taken from the entries so far, for reference:
entry	Structure	Six1-Eya2 blk	D2 potentiator	PINK1 modulator	D2 agonist	TRPV1 potentiator	CtBP-E1A blk	Sfp inh
49	CC(=O)N1CCN(S(=O)(=O)c2cccc(C(=O)N3CCN(S(=O)(=O)c4c(C)c(C)cc(C)c4C)CC3)c2)CC1	-1.8	-8.5	0.5%	-0.7	nt	0.0	nt
50	O=C(NNC(=O)c1cc(Cl)ccc1O)c1cccs1	-9.2	-3.6	-1.6%	-1.9	?	-8.3	32.0%[activator]

# (next part)
entry	Structure	Six1-Eya2 blk	D2 potentiator	PINK1 modulator	D2 agonist	TRPV1 potentiator	CtBP-E1A blk	Sfp inh
51	O=C(CN1CCN(S(=O)(=O)c2ccc(Cl)cc2)CC1)NC1CC1	25.9	-0.2	0.0%	-4.0	-8.8	10.0	-14.4%
52	O=C(Oc1ccccc1)N1CCOCC1	8.0	-1.3	-0.9%	1.1	12.5	9.2	15.1%
53	Cc1csc(NC(=O)[C@@H](NC(=O)c2ccccc2)C(C)C)n1	4.6	-1.8	2.6%	1.2	3.0	15.6	-1.4%
54	CCOc1ccc2[nH]c(=O)c(CN(CC3COCCO3)C(=O)c3ccco3)cc2c1 (stereo not given)	-1.0	-7.0	-0.7%	-2.8	10.3	-12.8	-0.3%
55	O=C(C1CCCCC1)N1C[C@@H](O)[C@H](n2cc(C3CC3)nn2)C[C@@H]1c1ccccc1	5.5	7.8	2.7%	-6.2	nt	8.0	nt
56	Cc1ccc(NC(=O)c2nc[nH]c2C(=O)NCCN(CCNC(=O)c2[nH]cnc2C(=O)Nc2ccc(C)cc2)CCNC(=O)c2[nH]cnc2C(=O)Nc2ccc(C)cc2)cc1	1.6	-7.0	-0.4%	-4.2	nt	7.4	nt
57	O=C(CSc1ncn[nH]1)Nc1ccc(Cl)c(S(=O)(=O)N2CCOCC2)c1	-5.2	-4.2	1.3%	-3.7	16.2	8.4	10.7%

# Assay outcomes (PubChem)
